Assay outcomes from PubChem.
D2 potentiator: potentiates the human D2 dopamine receptor allosterically. DiscoveRx D2 beta-arrestin cells, luminescence, 90 min; 100% = 57 uM dopamine signal. potentiation, % (test concentration not listed). P14416. actives 0.23% (n = 360,000). AID 624464; active = potentiation of 50% or more; inconclusive = 30% to 50%; inactive = 30% or less;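 also: compound concentration not given in the record; tested on top of an EC20 dose of dopamine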
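D2 cells co-treated with compound plus 50 nM dopamine (EC20) for 90 min at 37 deg C to detect potentiation. Beta-arrestin recruitment was read as enzyme-fragment luminescence after 1 h at ambient temperature. Full response was set by 57 uM dopamine.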
PINK1 modulator: PINK1 expression modulation; PINK1 immunofluorescence, high-content cytometry, 24 h; Potency, µM (titrated, usually from 76.6 µM), without a hit: at the top dose activation (PINK1 increase), actives largely listed as activators; actives 0.2% (n = 410,000); AID 624263; active = well fitted activation curve with a large enough effect; inconclusive = small, poorly fitted or top-dose-only effect; inactive = flat fitted curve, though single readings scatter; cell line not stated here;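 also: potency is read from the fitted curve at half-maximal effect; % of control where 0% means no effect; nearly all actives have a fitted effect of over 65% in size; a mitochondrial uncoupler was the plate control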
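A stable cell line was treated with compounds at 5 concentrations for 24 hours, with CCCP as control. PINK1 levels and mitochondrial localization were measured by immunofluorescence with mitochondrial, cell and nuclear markers after fixation, read by laser-scanning cytometry.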
TRPML1 agonist: human mucolipin-1 channel agonism. actives 0.12% (n = 410,000). activation, % (no concentration beside the values). TRPML1-expressing cells, Ca2+ dye fluorescence, FDSS; host cell line not named in the record; reference of the full effect not given here. Q9GZU1. AID 624414; in the data active = activation above about 50%; inconclusive = about 30% to 50%; inactive = below about 30%; also: 0% is about no effect; the text of the record puts the active cut at 80%
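TRPML1-DL cells, Tet-induced overnight (~16 h, 37 degrees C), loaded 45-90 min at room temperature with Ca8 no-wash calcium dye plus quencher. FDSS fluorescence: 10 s baseline, compound pin-transfer, 110 s agonist read, then EC80 54-4 (4uM final) and 110 s antagonist read.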
D2 ag: agonists of human D2 dopamine receptor (beta-arrestin). P14416. DiscoveRx PathHunter D2 beta-arrestin, luminescence, 90 min; 100% = 57 uM dopamine signal. activation, % (concentration not given with the values). actives 0.084% (n = 360,000); in the data active = activation above about 40%; inconclusive = about 15% to 40%; inactive = below about 15%; also: compound concentration not given in the record; the text of the record calls up to 30% inactive
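DiscoveRx PathHunter D2 beta-arrestin cells (2,100/well) attached overnight, then compound-stimulated 90 min at 37 C in HBSS/10 mM HEPES/0.1% Tween-20 buffer; beta-galactosidase complementation read by luminescence after 1 h at ambient temperature. Dopamine 57 uM final (EC100) as control.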
Six1-Eya2 inh: blocks human Six1 binding to Eya2; AlphaScreen GST-Six1/His-Eya2 binding, biochemical; hits give low values; control for the full effect not named in the record; actives 0.56% (n = 360,000); AID 651725; Q15475+O00167; activity change, % (concentration not given with the values); in the data active = activity change below about -65%; inconclusive = about -30% to -65%; inactive = above about -30%; also: % is scaled to controls: 0 for no effect and ±100 for the full control effect
Target sequence (O00167 whole entry, looked up): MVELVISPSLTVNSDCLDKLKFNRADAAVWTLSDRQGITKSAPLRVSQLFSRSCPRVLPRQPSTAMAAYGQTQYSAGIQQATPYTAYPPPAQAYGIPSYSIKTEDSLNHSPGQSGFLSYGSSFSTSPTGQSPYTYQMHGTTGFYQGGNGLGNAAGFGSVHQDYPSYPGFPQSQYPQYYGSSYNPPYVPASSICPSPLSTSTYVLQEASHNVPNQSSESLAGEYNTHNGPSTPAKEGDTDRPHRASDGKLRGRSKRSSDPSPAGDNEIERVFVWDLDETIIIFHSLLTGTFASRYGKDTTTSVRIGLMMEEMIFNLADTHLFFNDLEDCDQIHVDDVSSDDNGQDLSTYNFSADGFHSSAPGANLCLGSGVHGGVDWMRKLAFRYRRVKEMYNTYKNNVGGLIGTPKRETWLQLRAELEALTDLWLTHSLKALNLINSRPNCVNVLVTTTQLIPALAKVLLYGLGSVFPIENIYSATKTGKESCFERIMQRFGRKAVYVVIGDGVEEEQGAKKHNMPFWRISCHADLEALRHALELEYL
Target sequence (Q15475 whole entry, looked up): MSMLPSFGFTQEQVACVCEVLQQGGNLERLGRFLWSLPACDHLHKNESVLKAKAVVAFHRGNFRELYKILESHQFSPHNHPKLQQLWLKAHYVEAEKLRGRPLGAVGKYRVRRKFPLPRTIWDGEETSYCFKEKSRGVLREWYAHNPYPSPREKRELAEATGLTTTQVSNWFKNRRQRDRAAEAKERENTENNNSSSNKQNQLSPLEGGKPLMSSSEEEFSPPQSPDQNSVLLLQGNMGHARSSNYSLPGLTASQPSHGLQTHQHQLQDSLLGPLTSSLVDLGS
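AlphaScreen luminescence read after one hour at 37 °C in darkness. Pin-transferred compounds met GST-Six1 and His-Eya2 protein (5X stock 250 nM/500 nM) plus glutathione donor and Ni-chelate acceptor beads (5X, 50 ug/mL).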
TRPML1 blocker: human mucolipin-1 channel inhibition; TRPML1-inducible cells, Ca2+ dye fluorescence, FDSS; hits give low values; inhibition of EC80 agonist-evoked calcium signal; activity change, negative = inhibition, % (no concentration beside the values); actives 0.02% (n = 390,000); AID 624415; in the data active means activity change below about -50%; inconclusive means about -30% to -50%; inactive means above about -30%;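 also: stimulus is agonist 54-4 at its EC80 concentration; % is scaled to controls: 0 for no effect and ±100 for the full control effect; compound concentration not given in the record; the text of the record puts the active cut at -80%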
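TRPML1-DL cells, Tet-induced overnight (~16 h, 37 °C) at 1,500 cells/well, were loaded with Ca8 no-wash dye plus quencher for 45-90 min at room temperature. Compounds were pinned during FDSS kinetic reading; agonist 54-4 at EC80 (4 uM final) then added.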
* = called active by the depositor; ? = inconclusive; . = not tested or not shown; & = joins results of further samples; [ ] = another dose, or the depositor's remark.

Molecule | D2 potentiator | PINK1 modulator | TRPML1 agonist | D2 ag | Six1-Eya2 inh | TRPML1 blocker
CCN(CC)S(=O)(=O)c1cccc(NC2=NCCCCC2)c1 | -4 | 3.3% | . | -3.7 | 0 | .
O=CN1CCN(C(C(=O)NC2CCCCC2)c2ccc(Cl)cc2)CC1 (stereo unspecified) | -5 | 0.9% | 0.8 | -0.2 | 5 | -2
Cc1ccc(S(=O)(=O)N2CCCCC2)cc1C(=O)Nc1ccc(S(=O)(=O)Nc2ncccn2)cc1 | 6 | 0.3% | 0.5 | 3.4 | -4 | 49
Cc1ccc(C)c(NC(=O)C2CCN(c3cc(C)nc4c(-c5ccc(Cl)cc5)c(C)nn34)CC2)c1 | . | 3.1% | -0.9 | . | . | 1
CCc1nnc(NS(=O)(=O)c2ccc(N/C=C/C(=O)c3ccc(OC)cc3)cc2)s1 | -7 | -1.4% | 0.7 | 1.7 | -23 | 14
O=C(NCCCN1CCCC1=O)c1ccc(OCc2ccccc2)cc1 | -6 | -0.1% | -0.8 | -1.5 | -3 | 21
O=C(Cc1csc(-c2ccc(F)cc2)n1)Nc1cccc(S(=O)(=O)NC2=NCCC2)c1 | 1 | 0.5% | 1.6 | 1.6 | 2 | -10
Cc1nn(Cc2ccccc2)c(C)c1NC(=O)c1noc2c1CCc1ccccc1-2 | -4 | 1.3% | 0.6 | 0.4 | -15 | 56
O=C(CC(=O)c1ccccc1)Nc1cccnc1 | 2 | 2.9% | -0.6 | 3.5 | 0 | -4
CCOC(=O)c1cc(-c2ccccc2C)nn1CC1CC(c2ccc(OC)cc2)=NO1 (stereo unspecified) | -6 | 1.1% | 1.5 | -1.5 | 9 | 7
CN1/C(=C\C(=O)CSc2ncn[nH]2)C(C)(C)c2ccccc21 | -9 | -0.6% | -0.8 | -0.8 | -7 | ?
COc1ccc(N2CCN(CCN3C(=O)c4ccccc4C3=O)CC2)cc1 | -4 | 0.4% | -0.6 | -0.9 | -21 | 6
Cc1ccc(N2C(=O)N(CC(=O)Nc3ccccc3C)C(=O)C2C)cc1 (stereo unspecified) | 19 | 0.4% | 0.3 | 5.0 | 5 | -2
Cn1cc(CNCc2cn[nH]c2-c2ccc(F)cc2)c(-c2ccc3c(c2)OCCO3)n1 | 1 | 0.4% | 0.3 | -0.9 | -1 | -8
COc1ccc(C(=O)CC(=O)C(=O)Nc2cc([N+](=O)[O-])ccc2OC)cc1 | -12 | 1.9% | 1.1 | -2.3 | -9 | 13
Oc1ccc(-c2nccc(-c3ccc(Cl)cc3Cl)n2)cc1 | -3 | ? | 1.9 | -0.3 | -1 | 0
Cc1cc(C)c(NC(=O)CN2C(=O)NC(Cc3ccccc3)C2=O)c(C)c1 (stereo unspecified) | -4 | 3.6% | 0.0 | -2.1 | -2 | 6
CCOC(=O)CC(NC(=O)CCc1c(C)nc2ncnn2c1C)c1ccc(OC(C)C)cc1 (stereo unspecified) | -5 | -0.3%&1.8% | 1.1&-1.1 | -0.4 | 4 | 24&-18
CCOc1ccc(S(=O)(=O)c2cn(Cc3ccccc3)c3ccc(OCC)cc3c2=O)cc1 | . | 5.3% | 2.1 | . | . | 10
c1coc(CNc2ncnc3sc4c(c23)CCCCC4)c1 | 11 | -1.3% | -0.9 | -4.6 | 0 | -10
CC(C)OC(=O)CSc1nc2ccccc2s1 | -5 | -1.5% | -1.5 | -0.7 | 19 | 16
Cc1cccc(NC(=O)C2CCCN(C(=O)NCc3ccccc3)C2)c1C (stereo unspecified) | 0 | -0.3% | -1.5 | -0.4 | 6 | -2
O=C(COC(=O)c1c[nH]c2ccccc12)Nc1ccc(F)cc1 | -8 | 0.7% | 1.0 | -7.7 | -11 | 0
Cc1c(Cl)cccc1NC(=O)CSc1nc(=O)[nH]c2c1CCCC2 | . | -0.1% | 0.0 | . | . | -17
O=C(O)c1ccc(N/N=C/c2cc3ccccc3nc2Cl)cc1 | -11 | 1.5% | 0.3 | 3.1 | -14 | 7

Continued, starting with the last two of the part before.
Below each compound: D2 potentiator	PINK1 modulator	TRPML1 agonist	D2 ag	Six1-Eya2 inh	TRPML1 blocker
> Cc1c(Cl)cccc1NC(=O)CSc1nc(=O)[nH]c2c1CCCC2
 : .	-0.1%	0.0	.	.	-17
> O=C(O)c1ccc(N/N=C/c2cc3ccccc3nc2Cl)cc1
 : -11	1.5%	0.3	3.1	-14	7
> Cc1onc(-c2ccccc2)c1C(=O)OCC(=O)Nc1cc(S(=O)(=O)N2CCOCC2)ccc1Cl
 : 0	2.2%	1.5	4.1	-4	9
> Cc1ccc(NC(=O)CSc2cccc3cccnc23)c(C)c1
 : -29	6.8%	0.4	-3.5	-11	2
> CCN(CC(=O)Nc1ccc2c(c1)OCCO2)S(=O)(=O)c1ccccc1
 : 14	0.7%	0.0	-2.9	-4	7
> O=C(CNS(=O)(=O)c1ccc(F)cc1)Nc1ccccc1
 : -15	-0.1%	1.2	-1.8	6	7
> COc1ccc(C(=O)Nc2cccc(/C=C/c3nc4ccccc4c(=O)[nH]3)c2)cc1
 : 3	-1.2%	0.7	15	2	25
> Cc1ccc(NC(=O)COC(=O)c2ccc(CN3CCCC3=O)cc2)cc1C
 : -13	1.0%	-0.3	-3.5	5	-3
> CCCCCCn1c(=O)n2n(c1=O)C[C@]1(OC(=O)Nc3cccs3)CN(S(=O)(=O)c3ccc(C)cc3)C[C@]1(O)C2
 : 0	?	-0.5	-5.7	-11	1
> O=C(c1cccc(S(=O)(=O)N2CCCCC2)c1)N1CCN(Cc2ccccc2)CC1
 : -13	0.0%	-0.2	6.0	1	-9
> CCOc1ccc(NC(=O)Cn2c(=O)n(Cc3ccc(C(=O)NCc4ccc(C)cc4)cc3)c(=O)c3ccccc32)cc1
 : .	1.6%	-0.2	.	.	5
> Cc1cccc(NC(=O)CN(c2ccc(C(C)C)cc2)S(=O)(=O)c2c(C)nn(C)c2C)n1
 : -6	-0.1%	-0.2	0.3	0	-7
> CC(=O)NN1C(=O)c2ccccc2NC1c1ccoc1 (stereo unspecified)
 : -4	1.8%	-0.1	-3.5	-8	-7
> CCc1cccc(NC(=O)CCS(=O)(=O)c2ccc3c(c2)NC(=O)CO3)c1
 : 1	-1.0%	-1.2	-2.1	3	27
> CCOc1cccc(/C(O)=C2/C(=O)C(=O)N(CCOC)C2c2ccc(C)o2)c1 (stereo unspecified)
 : -14	-0.6%	-0.8	-4.9	-3	-1
> COc1ccccc1N1CCN(S(=O)(=O)c2cc3[nH]c(=O)c(=O)[nH]c3cc2C)CC1
 : -27	0.8%&-0.4%	-0.7&1.8	-5.3	-9	5&3
> CCOC(=O)Cn1nc2sc3ccccc3n2c(=O)c1=O
 : -4	-0.3%	1.1	-5.9	4	-4
> CCCCC(=O)Nc1ccc2c(c1)nc(CCNC(=O)c1ccco1)n2C
 : -22	0.9%	-0.2	-3.0	4	21
> CCOC(=O)C1=C(CSc2nccn2C)NC(=O)NC1c1cc(C)ccc1C (stereo unspecified)
 : 0	-4.3%[38.3 µM]	0.2	-2.2	-2	0
> CCc1nn2cc(-c3ccccc3)nc2s1
 : 3	3.4%	0.2	-3.5	5	24
> Cc1cc(C)c(NC(=O)CSc2nc3c(c(=O)n2C)SC(C)C3)c(C)c1 (stereo unspecified)
 : -4	0.8%	-1.4	-4.6	-5	-3
> Cc1cccc(C(=O)NCc2ccc(S(N)(=O)=O)cc2)c1[N+](=O)[O-]
 : -3	0.9%	-0.5	-1.9	-9	20

Random excerpt: 2 records from the list
Below each compound: D2 potentiator	PINK1 modulator	TRPML1 agonist	D2 ag	Six1-Eya2 inh	TRPML1 blocker
> Cc1cc(C)c(NC(=O)CSc2nc3c(c(=O)n2C)SC(C)C3)c(C)c1 (stereo unspecified)
 : -4	0.8%	-1.4	-4.6	-5	-3
> O=C(O)c1ccc(N/N=C/c2cc3ccccc3nc2Cl)cc1
 : -11	1.5%	0.3	3.1	-14	7

The listing continues:
Below each compound: D2 potentiator	PINK1 modulator	TRPML1 agonist	D2 ag	Six1-Eya2 inh	TRPML1 blocker
> N#CC1=C(N)OC2=C(C(=O)CCC2)[C@]12C(=O)N(CC(N)=O)c1ccccc12
 : 5	-1.1%	0.0	0.4	0	-3
> CCCCNc1c(-c2ccc(Sc3ccc(OC)cc3)cc2)nc2cc(C)ccn12
 : -6	28µM*	0.8	7.8	-8	21
> CCCCc1c(C)nc2ccc(C)cc2c1SCCC(=O)O
 : 4	-2.7%	-0.4	0.7	17	-15
> COC(=O)c1cc2n(n1)CCN(Cc1ccc(C)cc1)C2=O
 : 23	-0.9%	-0.8	-0.2	-8	4
> CN1CCN(C(=O)CN(C)S(=O)(=O)c2cc(Cl)ccc2Cl)CC1
 : -8	0.4%	-0.1	-1.0	-8	-4
> C=CCC1(O)CC(c2ccco2)NC(c2ccco2)C1CCC (stereo unspecified)
 : -4	0.1%	0.7	-2.7	-4	-4
> COc1ccccc1NC(=O)CN1C(=O)NC(C)(C)C1=O
 : 5	4.8%[38.3 µM]	0.5	-1.9	4	-12
> CCN(CC)C(=O)C(Sc1ccccc1)c1ccccc1 (stereo unspecified)
 : -5	-2.2%	3.1	-3.9	9	6
> Cc1cccc(-n2c3nc(=O)[nH]c(=O)c-3cc3c(C)nn(-c4ccccc4)c32)c1C
 : 6	0.8%&1.1%	-0.2&-0.7	-5.5	2	9&19
> Cc1ccc(-n2cc3c(c2-c2ccccc2Br)c(=O)n(C)c(=O)n3C)cc1N
 : .	-0.6%	0.2	.	.	-4
> Cc1cccc(N2CCN(C(=O)c3cccc(N4C(=O)C5CC=CC(C)C5C4=O)c3)CC2)c1C (stereo unspecified)
 : 4	23%[38.3 µM]	0.2	-0.7	-13	1
> Cc1onc(-c2c(Cl)cccc2Cl)c1C(=O)NCC1CCCO1 (stereo unspecified)
 : -4	-0.1%[38.3 µM]	0.3	1.7	4	2
> COc1ccc(-n2c(=O)cc(N3CCCCCC3)[nH]c2=O)cc1
 : -15	2.5%	-0.4	-4.4	-1	-13
> COc1ccc2c(ccc[n+]2[O-])c1
 : -4	-0.5%	-0.2	-0.2	8	-12
> CCc1ccccc1N(CC(=O)NCc1ccco1)C(=O)CCC(=O)Nc1nccs1
 : -4	-1.5%	0.4	-1.1	5	-2
> CCOC(=O)c1oc2c(c1C)C(=O)CCC2
 : -1	2.7%	0.0	-0.1	2	-1
> CSc1ccc(CNCc2ccco2)cc1
 : -11	1.4%	-0.4	-5.2	-8	-2
> CC(C)N(C(=O)CSc1nc2ccccc2c(=O)[nH]1)C(C)C
 : -10	-2.4%	1.5	-2.6	0	5
> CCOc1ccccc1CN1CCN(Cc2cc(=O)c3ccccc3[nH]2)CC1CCO (stereo unspecified)
 : -4	4.3%	0.1	-1.1	-3	8
> Cc1ccccc1S(=O)(=O)N1[C@@H](c2cccc(Cl)c2)C(C(=O)O)=CC[C@H]1c1ccc(Cl)cc1
 : -4	1.7%	1.4	0.4	-12	0
